# 2A StopGo: FMDV 2A StopGo reporter, luciferase signal. hit rate 1.2% among 410,000. human cells with a luciferase reporter of 2A StopGo recoding; control for the full effect not named in the record. AID 1159524. Potency, µM (titrated, usually from 57.9 µM), for the others: top-dose signal change, negative = less light; active = well fitted falling curve with a large enough effect; inconclusive = small, poorly fitted or top-dose-only effect; inactive = no such curve, though single readings can be large or run the other way; tested in HEK293T cells; further: on the % scale 0 is the no-effect control and ±100 the full control effect; nearly all actives have a fitted effect of over 45% in size; luciferase light after 4 h
# RE007 growth inh: less growth of the S. pombe RE007 Vpr strain; S. pombe RE007 Vpr strain, BacTiter-Glo ATP luminescence, 24 h; control for the full effect not named in the record; hit rate 0.21% among 360,000; Potency, µM (titrated, usually from 92.2 µM), for the others: at the top dose activity change, negative = less growth; AID 651644; active = well fitted falling curve with a large enough effect; inconclusive = small, poorly fitted or top-dose-only effect; inactive = no such curve, though single readings can be large or run the other way;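 further: on the % scale 0 is the no-effect control and ±100 the full control effect; nearly all actives have a fitted effect of over 50% in size; the assay follows cell death caused by Vpr and the record does not say whether a fall means rescue or toxicity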
#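 Fission yeast strain RE007, carrying one chromosomally integrated HIV-1 vpr copy, was seeded at OD 0.01 in PMG+AL medium with 23 nL pinned compound. After 24 h at 30 °C and 99% humidity, viability was read by BacTiter-Glo luminescence.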
# NS1 function inh: blocks influenza NS1 protein function; Potency, µM (series often up to 46.1 µM), for inactives: at the top dose activity, positive = more growth; hit rate 0.4% among 270,000; S. cerevisiae slowed by influenza A NS1, growth recovery by OD600; active means well fitted rising curve with a large enough effect; inconclusive means small, poorly fitted or top-dose-only effect; inactive means no such curve, though single readings can be large or run the other way; further: nearly all actives have a fitted effect of over 50% in size
#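 A cell-based growth assay was used: compounds that relieve NS1-induced slow growth of budding yeast raise OD600. Assay medium was yeast nitrogen base with ammonium sulphate and -URA supplement, pH 6.0, with 2% galactose.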
# MARV entry inh: blocks Marburg virus binding to or entry into cells; hit rate 1.8% among 300,000; Potency, µM (series often up to 37.8 µM), for the others: at the top dose activity change, negative = inhibition, usual class: inhibitors; AID 540276; Marburg virus pseudotyped entry inhibition, cell reporter; control for the full effect not named in the record; about a third of the inactives were read at about 46 µM; active = well fitted inhibition curve with a large enough effect; inconclusive = small, poorly fitted or top-dose-only effect, or effect the other way; inactive = flat fitted curve, though single readings scatter; tested in HEK293 cells; about a fifth of its hits are not listed in these tables; further: on the % scale 0 is the no-effect control and ±100 the full control effect; luciferase read-out
# Cruzain inh noDet: cruzain (T. cruzi) inhibition without detergent; purified cruzain, Z-FR-AMC fluorescence, no detergent; Potency, µM, for the others: max response, negative = inhibition, most hits filed as inhibitors; hit rate 2.3% among 200,000; AID 1476;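 further: plate controls were enzyme without inhibitor for no effect and buffer without enzyme for full effect; nearly all actives have a fitted effect of over 40% in size; top concentration of the series not given in the record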
# Target sequence (P25779 123-467 limits assumed): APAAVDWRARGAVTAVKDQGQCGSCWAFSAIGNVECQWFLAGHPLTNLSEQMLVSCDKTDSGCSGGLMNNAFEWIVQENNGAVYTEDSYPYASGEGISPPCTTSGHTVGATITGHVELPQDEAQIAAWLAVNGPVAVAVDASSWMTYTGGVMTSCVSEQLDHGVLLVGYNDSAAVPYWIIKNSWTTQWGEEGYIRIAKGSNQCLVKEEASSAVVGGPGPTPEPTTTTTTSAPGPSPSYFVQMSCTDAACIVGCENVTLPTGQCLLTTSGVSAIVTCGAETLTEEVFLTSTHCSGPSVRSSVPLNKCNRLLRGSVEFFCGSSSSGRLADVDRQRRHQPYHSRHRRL
#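 Purified cruzain at 1.5 nM, pre-incubated 15 min with compound at room temperature in 100 mM sodium acetate pH 5.5, 5 mM DTT, 0.00005% Triton X-100. Reaction started with 2 uM Z-FR-AMC; AMC fluorescence increase over 60 s gives rate.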
# Lassa entry inh: blocks Lassa virus binding to or entry into cells | Potency, µM (highest dose often 37.9 µM), for inactives: at the highest dose activity change, negative = inhibition, actives largely listed as inhibitors | hit rate 1.2% among 300,000 | Lassa virus pseudotype entry inhibition, cell reporter; control for the full effect not named in the record; active means well fitted inhibition curve with a large enough effect; inconclusive means small, poorly fitted or top-dose-only effect, or effect the other way; inactive means flat fitted curve, though single readings scatter; tested in HEK293 cells; further: on the % scale 0 is the no-effect control and ±100 the full control effect; nearly all actives have a fitted effect of over 50% in size; luciferase read-out
# SARS PLP yeast: inhibitors of SARS-CoV papain-like protease in yeast; S. cerevisiae expressing SARS-CoV PLpro, growth rescue; control for the full effect not named in the record; Potency, µM (titrated, usually from 32.9 µM), for inactives: at the highest dose activity, positive = growth rescue; hit rate 0.19% among 330,000; AID 485353; active means well fitted rising curve with a large enough effect; inconclusive means small, poorly fitted or top-dose-only effect; inactive means no such curve, though single readings can be large or run the other way; further: 0% is about no effect; nearly all actives have a fitted effect of over 55% in size; growth read by luminescence after 48 h
# Cruzain inh Det: cruzain (T. cruzi) inhibition with detergent; P25779; purified cruzain, Z-FR-AMC fluorescence, 0.01% Triton; Potency, µM, for the others: max response, negative = inhibition, usual class: inhibitors; hit rate 0.43% among 200,000; AID 1478;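 further: plate controls were neutral wells for no effect and buffer without enzyme for full effect; nearly all actives have a fitted effect of over 40% in size; top concentration of the series not given in the record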
#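 Enzyme 1.5 nM, Z-FR-AMC 2 uM, NaOAc 100 mM pH 5.5, DTT 5 mM, Triton X-100 0.01%; 15 min RT compound preincubation; kinetic ex360/em450, 60 s delta.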
# An asterisk follows results filed as active; u = inconclusive; x = no result given; & = joins results of further samples; [ ] = remark or other dose. Unless noted, the call rests on the fitted dose curve; in most records, active means well fitted curve in the direction sought with a large enough effect; inconclusive means small, poorly fitted or top-dose-only effect, or another doubt; inactive means no such curve, though single readings can be large; an effect the other way counts as inactive or inconclusive. Potency means the concentration at half of the fitted maximal effect.
SMILES,2A StopGo,RE007 growth inh,NS1 function inh,MARV entry inh,Cruzain inh noDet,Lassa entry inh,SARS PLP yeast,Cruzain inh Det
N/C(=N\OC(=O)CCc1ccccc1)c1cccc(Br)c1,41%[activator],-17%,-60%,24%,-3%,-20%,-21%,-3.0%
O=C(CCCCCN1C(=O)[C@@H]2Cc3ccccc3CN2C1=O)N[C@@H](Cc1ccc(O)cc1)C(=O)O,-16%,-7%,-8%,x,x,x,10%,x
COc1ccc(NC(=O)CN(C)C(=O)CN2C(=O)NC3(CCCC3)C2=O)cc1,-7%,-8%,x,u,x,3%,0%,x
CCN1c2nc3ccccn3c(=O)c2CC2(C(=O)N(C)C(=O)N(C)C2=O)C1C (stereo unspecified),3%,4%,-4%,0%,1%,9%,-13%,-0.9%
O=c1c2c(n3nnnc3n1Cc1ccccc1)-c1ccccc1CC21CCCC1,u,-6%,-10%,u,25µM*,2%,5%,3.7%
CC(C)C[C@@H]1NC(=O)N(CCCn2ccnc2)C1=O,-2%,-5%,2%,-5%,x,x,0%,x
CNc1ccc(/C=C(\C#N)C(=O)Nc2ccccn2)cc1[N+](=O)[O-],32%[activator],-21%,-12%,-7%[46.1 µM],x,u,-2%,x
COc1ccc(-n2c3c(cc(-c4nc(-c5ccc(Cl)cc5)cs4)c2=O)C(=O)CC(C)(C)C3)cc1,5%,x,x,u,3%,2%[46.1 µM],x,-2.2%
O=C(NNc1ccc(Cl)cc1)c1sccc1Cl,-12%,29%,-67%,x,x,x,-2%,x
O=C1NC(c2ccccc2)=C(c2ccccc2)C1=O,-5%,u,5%,2%,20%,1%,2%,-3.0%
CCCOc1ncnc2c1[nH]c1ccccc12,u,u,-94%,-12%,5%,-17%,-19%,-5.1%
CCn1c(=O)c2c(nc3n2CCS3)n(C)c1=O,-22%,2%,0%,2%,-7%,18%,3%,-3.9%
CN(C)Cc1c(O)ccc2occ(C(=O)c3ccccc3)c12,12%,-16%,u,-20%,-15%,-6%,x,-3.9%
COc1cc([C@H]2[C@@H]3CCCC[C@]3(O)CCN2Cc2ccccc2F)ccc1O,-17%,-13%,7%,u,-11%,u,6%,-1.8%
COC(=O)[C@H](CC(C)C)NS(=O)(=O)c1ccccc1,8%,-7%,8%,x,x,x,4%,x
COC(=O)C(C)Sc1nnc(Cc2cc(=O)[nH]c(=O)[nH]2)n1-c1cccc(OC)c1 (stereo unspecified),-18%,10%,13%,x,1%,x,5%,3.2%
COc1ccc(N2CCN(C(=O)CCCSc3nc4ccccc4[nH]3)CC2)cc1,u,-4%,-5%,-17%[46.1 µM],1%,-27%,-9%,-16%
CC(C)(C)C(=O)Nc1nc2c(s1)COc1ccccc1-2,-22%,-12%,2%,x,6%,x,u,-13%
Cc1ccc(NC(=O)O/N=C/c2ccc(Br)cc2)cc1,30%,-13%,6%,8%[46.1 µM],x,-7%[46.1 µM],-5%,x
Cc1[nH]c(=O)[nH]c(=O)c1S(=O)(=O)N1CCN(c2cccc(Cl)c2)CC1,-23%&-11%,21%,3%,5%&1%,u,10%,8%,-0.4%&0.6%
CC(C)CCNC(=O)C(NS(=O)(=O)c1ccc2c(c1)c(=O)n(C)c(=O)n2C)c1ccccc1 (stereo unspecified),49%[activator],7%,4%,1%,u,x,5%,4.7%
CCC(Sc1nc2ccc(N)cc2s1)C(=O)Nc1nccs1 (stereo unspecified),-28%,-2%[3.69 µM],13%,-12%,u,20%,8%,-5.9%
COc1ccccc1NC(=O)CSC1=Nc2ccccc2C2=NC(CC(=O)NCc3cccs3)C(=O)N12 (stereo unspecified),-24%,x,x,x,-6%,13%[46.1 µM],x,-0.1%
O=C(Nc1nnc(-c2ccncc2)o1)c1ccc2ccccc2c1,-6%,4%,-8%,9%[46.1 µM],x,-23%[46.1 µM],x,x
CCCC(=O)Nc1ccc(C(=O)Nc2nc(CC(=O)OCC)cs2)cc1,-18%,-4%,5%,-17%,1%,1%,-4%,-5.4%
CCOc1ccc(C)cc1S(=O)(=O)Nc1ccc(Cl)cn1,107%[activator],5%,5%,7%,u,-1%,6%,1.5%
C/C(=N/NC(=O)Cc1cccc2ccccc12)c1cccs1,-20%,-4%,17%,u,5%,-1%,-6%,-8.0%
OC(COc1ccc(Br)cc1)Cn1ccnc1 (stereo unspecified),-16%,-8%,-1%,-4%[46.1 µM],x,15%[46.1 µM],0%,x
N#Cc1c(C(F)(F)F)cc(-c2cccc(Cl)c2)[nH]c1=O,u,-2%,-21%,-28%[46.1 µM],-5%,6%,-23%,-10%
NS(=O)(=O)c1ccc(-n2nncc2-c2ccco2)cc1,-1%,23%,u,-9%[46.1 µM],x,12%[46.1 µM],1%,x

# Six compounds out of the list, sorted by count of non-hydrogen atoms, smallest number first:
SMILES,2A StopGo,RE007 growth inh,NS1 function inh,MARV entry inh,Cruzain inh noDet,Lassa entry inh,SARS PLP yeast,Cruzain inh Det
COC(=O)[C@H](CC(C)C)NS(=O)(=O)c1ccccc1,8%,-7%,8%,x,x,x,4%,x
N/C(=N\OC(=O)CCc1ccccc1)c1cccc(Br)c1,41%[activator],-17%,-60%,24%,-3%,-20%,-21%,-3.0%
CN(C)Cc1c(O)ccc2occ(C(=O)c3ccccc3)c12,12%,-16%,u,-20%,-15%,-6%,x,-3.9%
COc1ccc(NC(=O)CN(C)C(=O)CN2C(=O)NC3(CCCC3)C2=O)cc1,-7%,-8%,x,u,x,3%,0%,x
COC(=O)C(C)Sc1nnc(Cc2cc(=O)[nH]c(=O)[nH]2)n1-c1cccc(OC)c1 (stereo unspecified),-18%,10%,13%,x,1%,x,5%,3.2%
COc1ccc(-n2c3c(cc(-c4nc(-c5ccc(Cl)cc5)cs4)c2=O)C(=O)CC(C)(C)C3)cc1,5%,x,x,u,3%,2%[46.1 µM],x,-2.2%

# Next records.
SMILES,2A StopGo,RE007 growth inh,NS1 function inh,MARV entry inh,Cruzain inh noDet,Lassa entry inh,SARS PLP yeast,Cruzain inh Det
Cc1oc2c(CN3CCCCC3C)c(O)ccc2c(=O)c1-c1ccc(Br)cc1 (stereo unspecified),u,0%,-1%,x,x,x,0%,x
CC(=O)c1ccccc1OCCCN1CCCCC1,-2%,-19%,-2%,9%,6%,1%,3%,-9.0%
COc1ccc(OC)c(NC(=O)CSc2nnc3ccc(-c4ccccn4)nn23)c1,-22%,19%,x,11%,x,22%,-2%,x
CC(=O)Oc1ccc(NC(=O)Cc2ccccc2)c(C(=O)O)c1,-2%,-13%,1%,u,x,0%[46.1 µM],1%,x
COc1cc(NC(=S)N2CCCC(CO)C2)cc(OC)c1 (stereo unspecified),22%,17%,0%,16%[46.1 µM],x,4%,-2%,x
CCOC(=O)c1cc(C)n(Cc2ccc(OCC)c(OC)c2)c1C,u,-16%,-15%,-24%,u,-18%,-4%,1.5%
CC(C)OC(=O)NCCOC(=O)Nc1ccc(Cl)c(Cl)c1,0%,-13%,-52%,u,-6%,u,-10%,-13%
CCN(CC)C(=O)C(C)OC(=O)COc1ccc(Cl)cc1C (stereo unspecified),-16%,-3%,-8%,-4%,16%,7%,1%,-0.9%
Nc1nc(SCC(=O)Nc2cc(C(F)(F)F)ccc2N2CCOCC2)n[nH]1,-10%,4%,x,12%[46.1 µM],x,4%,-2%,x
Cc1ccc(N2CC(C(=O)NCCS(=O)(=O)N3CCN(c4ccccc4F)CC3)CC2=O)cc1 (stereo unspecified),-6%&-6%,16%,-7%,x,3%,6%[46.1 µM],-1%,-0.1%
Cc1ccc(NC(=O)CC2S/C(=N/N=C3\CCCc4ccccc43)NC2=O)cc1 (stereo unspecified),-17%,14%,17%,-3%,-11%,u,-46%,-9.5%
CCOc1ccc(Br)cc1S(=O)(=O)NC1CCCC1,56%[activator],-6%,x,-4%,x,19%,-5%,x
CCCCCn1c(=O)c(C(=O)Nc2ncccc2C)c(O)c2ccccc21,-14%,u,7%,-22%[46.1 µM],x,8%[46.1 µM],11%,x
CCCCCC(O)(CCN1CCCCC1)c1ccc(OCC)cc1 (stereo unspecified),-28%,-13%,x,u,x,-25%,2%,x
CCOC(=O)c1ccc(N2C(=O)C3C(C2=O)C(C(=O)c2ccc(Cl)cc2)N2CCCC32)cc1 (stereo unspecified),-23%,u,-11%,1%,u,-14%,-8%,-25%
Cc1c(C(=O)NCCSCc2c(F)cccc2Cl)cnn1-c1ccc(Cl)cc1,u,10%,-30%,u,x,u,0%,x
CCOC(=O)c1ccc(-c2cccc(C(F)(F)F)c2)nc1C,57%[activator],-8%,-3%,14%,10%,3%,3%,-2.5%
CCOC(=O)CSc1ccc2ccccc2n1,30%[activator],15%,-6%,10%,x,21%,0%,x
Cn1cnc(S(=O)(=O)N2CCc3ccccc32)c1,-13%,27%,1%,16%,-3%,3%,3%,1.7%
COc1cc(/C=C/C(=O)N2CCCC2)cc(OC)c1OC,-16%,10%,-3%,-2%,-2%,23%,-2%,-5.2%
O=C(c1ccco1)N(CC1CCCO1)c1nc(-c2ccccc2)cs1 (stereo unspecified),u,-20%,-31%,1%,-12%,-15%,-16%,-1.8%
COc1ccc(C(=O)NC2=C(C#N)CCC2)cc1OC,x,3%,-5%,12%,-23%,u,-2%,-2.1%
Cc1cc(Cl)ccc1NC(=O)c1ccc2c(c1)CCN2S(C)(=O)=O,9%,0%,2%,x,x,x,2%,x
CN(Cc1ccco1)C(=O)c1cc2c(s1)-c1ccc(Cl)cc1S(=O)(=O)C2,-23%,12%,-3%,x,x,x,-4%,x
CN(C)CCCN(C(=O)CCS(=O)(=O)c1ccccc1)c1nc2cc3c(cc2s1)OCO3,28µM*,5%,-3%,u,x,u,1%,x
O=C1OCc2ccc(NS(=O)(=O)c3ccc(C(F)(F)F)cc3)cc21,24%,5%,4%,x,x,x,1%,x
CC(=Nc1cccc(O)c1)c1sc2ccccc2c1O,x,-20%,-17%,10%&10%,-10%,8%,-26%,-13%
COC(=O)c1sccc1S(=O)(=O)N(CC(=O)NCc1ccc(F)cc1)c1ccccc1,-3%,x,x,x,-11%,-25%[46.1 µM],x,-2.9%
